Ba CapD inh = CapD enzyme inhibition. purified CapD enzyme, fluorescence intensity read-out; stronger effect = lower value; some hits fall short of the stated cut. z-score (test concentration not listed). 140,000 tested, 0.23% active;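 active means z-score under -4 in either of two replicates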;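 further: stock transfer was 100 nL into about 40 µL; score is relative to mean and spread of the plate; one replicate is shown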
AID504770 = growth inhibitors of E. coli YBA685 in a screen for V. cholerae RctB (chromosome II replication) inhibitors. E. coli YBA685 rctB-dependent plasmid, OD600 growth, 3 h; stronger effect = lower value. z-score (test concentration not listed). 130,000 tested, 0.27% active. AID 504770;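 active means z-score under -2 on both plates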;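 further: wells of about 30 µL received 100 nL stock; score is relative to mean and SD of the test wells; the first replicate is given; strong numbers were not always called active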
* marks the source's active call; other numbers are inactive results; x = no result given. Only part of the results is shown; count on the stated rates, not on these rows.

Molecule	AID504770	Ba CapD inh
CCOc1ccccc1-c1nnc(SC(C(=O)N(C)C)c2ccccc2)o1 (configuration not stated)	-0.2	x
Cc1cc(C#N)c2c(C)ccc(C(C)C)cc1-2	0.95	0.095
O=C(Nc1ccc(-c2nc3ncccc3o2)cc1)c1ccc(-c2cc3ccccc3oc2=O)cc1	0.25	1.44
COc1ccccc1C1CC(c2c(-c3ccccc3)c3cc(Br)ccc3[nH]c2=O)=NN1C(=O)c1ccco1 (configuration not stated)	x	0.945
Cc1nc(S/C=C/C(=O)c2ccccc2)c(C#N)c(C)c1C	-0.05	-0.055
O=C(O)c1ccccc1C(=O)Nc1ccc(Br)c(C(F)(F)F)c1	-0.4	-0.855
Oc1c(C(Nc2nccs2)c2cccnc2)ccc2cccnc12 (configuration not stated)	-0.75	-0.285
NNC(=O)c1cc2c(s1)-c1ccccc1CC2	-0.35	33.5
O=C(CSc1ccccc1C(=O)O)Nc1ccccc1	1.05	0.31
COc1ccc(C2CC(=O)N(CC(=O)NCc3ccco3)c3ccccc3S2(=O)=O)cc1OC (configuration not stated)	1.45	x
Cc1cccn2cc(-c3ccc(S(=O)(=O)N(C)C)cc3)nc12	x	35.6
Cc1nn(-c2ccccc2)nc1CNC(=O)C1=Cc2ccccc2OC1	-0.35	-0.34
O=C(c1ccccc1)N1CCCN(c2nccc(C(F)(F)F)n2)CC1	-0.25	0.315
CSC(SC)=C(C#N)S(=O)(=O)c1ccc(Cl)cc1	-0.25	-1.08
O=C(c1cccc(N2C(=O)C3C4C=CC(C4)C3C2=O)c1)N1CCN(c2ccccc2)CC1 (configuration not stated)	x	-0.67
CCC(=O)Nc1nnc(SCc2ccc(Br)cc2)s1	-0.5	0.41
COC(=O)c1sccc1N/N=C(\C#N)S(=O)(=O)c1ccccn1	x	25.8
O=S(=O)(c1cccc2nsnc12)N1CCC(O)(c2cccc(C(F)(F)F)c2)CC1	-0.5	0.175
CCOc1nc(OCC)nc(-n2cc(-c3ccccc3)nn2)n1	-0.1	0.51
CSc1nc(-c2ccc(Cl)cc2)nn1C(C)=O	-0.8	x
COc1ccc(O)c(C(=O)C2c3ccccc3C(=O)N2c2ccc(C)cc2)c1 (configuration not stated)	-0.15	0.695
CC(=O)c1ccc(OCc2ccc(Cl)c(Cl)c2)cc1	x	0.315
Cc1cccc(C(=O)Nc2ccccc2C#N)c1	-0.05	x
COc1ccc(N2C(=O)CCC(C(=O)N3CCCCC3)C2c2ccc(OC)c(OC)c2)cc1 (configuration not stated)	x	-0.575

Retrieved one by one from the entries so far (3):
Molecule	AID504770	Ba CapD inh
COc1ccc(O)c(C(=O)C2c3ccccc3C(=O)N2c2ccc(C)cc2)c1 (configuration not stated)	-0.15	0.695
O=C(c1ccccc1)N1CCCN(c2nccc(C(F)(F)F)n2)CC1	-0.25	0.315
O=C(c1cccc(N2C(=O)C3C4C=CC(C4)C3C2=O)c1)N1CCN(c2ccccc2)CC1 (configuration not stated)	x	-0.67

Later entries
Molecule	AID504770	Ba CapD inh
O=C(NCc1ccco1)C(c1ccccc1)N(C(=O)Cn1nnc2ccccc21)C1CCCC1 (configuration not stated)	1.6	x
O=C(Nc1ccccc1)c1cccc(S(=O)(=O)N2CCOCC2)c1	-0.05	0.13
COc1cc(C(=O)N/N=C(\C)c2ccc(-n3ccnc3)cc2)cc(OC)c1OC	-0.2	x
Nc1nc(-c2ccccc2)cn1Nc1ccccc1	-0.95	0.14
Clc1ccc(-c2csc(-c3ccc4c(c3)CCO4)n2)s1	-0.35	97.9
COCCN1Cc2cccc(C(=O)NCCCN3CCCC3=O)c2C1=O	-0.6	-0.365
Cc1c(CC(=S)N2CCOCC2)sc2ccccc12	x	-0.18
CC1CCCC(C)N1C(=O)Cc1noc2ccccc12 (configuration not stated)	-0.65	-1.55
O=C(c1ccco1)c1cn(Cc2ccccc2)c2ccccc12	-0.05	-0.255
Cc1nn(-c2ccccc2)c(C)c1C(=O)OCC(=O)N(C)C1CCS(=O)(=O)C1 (configuration not stated)	-2.05	x
N#Cc1ccc(CSC2=NCCN2)cc1	-0.35	-0.42
Cc1ccc(S(=O)(=O)c2c(C)nn(C(C)(C)C)c2OC(=O)C(C)C)cc1	-0.3	-0.025
CCOC(=O)c1c(NC(=O)C(C)Sc2nnc(CNC(=O)c3ccc(OC)c(OC)c3)n2C)sc2c1CCCC2 (configuration not stated)	x	-0.09
O=S(=O)(Nc1ccc2c(c1)c1c(n2S(=O)(=O)c2ccccc2)CCC1)c1ccccc1	x	-0.28
Cc1oc(C(C)(C)C)cc1C(=O)Nc1ccc(F)cc1	0.85	0.29
CCOC(=O)c1cc(-c2ccccc2)n(CCC(=O)O)c1C	1.35	0.225
Cc1ccc(N=C(NOCc2ccc(Cl)cc2)c2nonc2N)cc1	x	-0.21
CN(C)CCCn1c(-c2ccc(Cl)cc2)c(CC(=O)O)sc1=Nc1ccccc1	-0.1	x
Cc1ccc(C)c(NC2(C#N)CCCCC2)c1	1	x
COC(=O)C(NC(=O)c1cccs1)C12CC3CC(CC(C3)C1)C2 (configuration not stated)	-0.4	0.22
Cc1onc(-c2c(Cl)cccc2Cl)c1NC(=O)O/N=C(\N)Cc1ccc(C(C)(C)C)cc1	x	-0.25
CCCC(C)C(=O)N(C)c1ccccc1 (configuration not stated)	-0.7	0.38
COc1ccc(C(=O)N/N=C/c2ccc(OC)c(C)c2OC)cc1	x	0.155
COc1cc(OC)cc(N2C(=O)C3CC(C)=C(C)CC3C2=O)c1 (configuration not stated)	0.25	0.43
O=C(NCCC1=CCCCC1)c1ccc2cn[nH]c2c1	-1.45	-0.925
COC(=O)c1c(NC(=O)/C=C/c2ccccc2)sc2c1CCCC2	-0.7	-0.225
O=C(Nc1ccccc1)Nc1nccc(-c2cc(OCC(F)(F)F)ccc2OCC(F)(F)F)n1	0.4	1.76
NC(=O)c1ccsc1NC(=O)CSc1nc(-c2ccccc2)cs1	-0.7	x
Cc1noc(C)c1C(=O)O/N=C(\N)c1ccc(OC(F)(F)F)cc1	-0.55	0.51
Cc1ccc(N2CC(NS(=O)(=O)N(C)C)CC2=O)cc1C (configuration not stated)	0.85	x
COC(=O)C1=NNC2C(=O)N(c3cccc(C)c3)C(=O)C12 (configuration not stated)	x	-0.39
CC1CCCCN1S(=O)(=O)c1ccc(S(=O)(=O)NCc2ccc3c(c2)OCO3)cc1 (configuration not stated)	0.85	x
CCC(=O)N1N=C(c2c(-c3ccccc3)c3cc(Cl)ccc3[nH]c2=O)CC1c1ccco1 (configuration not stated)	-0.55	10.8
O=C(c1cccc(Cl)c1)N1CCNCC1	-0.4	0.305
CCOC(=O)c1ccccc1NC(=O)CCN1C(=O)c2ccccc2C1=O	2	0.255
O=C(COC(=O)COc1ccccc1)Nc1ccccc1	-0.8	x
CCN(C(=O)CSc1nnc(C2CC2)n1-c1ccccc1)C1=CCCC1	-0.55	x
O=C(Nc1ccc2[nH]ccc2c1)c1ccc2nonc2c1	-0.1	-1.49
CNc1ccccc1C(=O)OCC(=O)c1ccccc1	-3.25*	-0.13
CN1CCC(=NNC(=O)CCSc2ccc(Cl)cc2)CC1	2.05	0.005
Cc1nc2ccc(S(=O)(=O)N(C)CC(=O)N3CCc4ccccc4C3)cc2s1	-0.15	-0.02
CCOC(=O)Cc1csc(NC(=O)c2ccc(S(=O)(=O)N3CCCC3)cc2)n1	-0.2	x
COc1ccc(N2C(=O)C3C4c5ccccc5C(c5ccccc54)C3C2=O)cc1 (configuration not stated)	x	-0.07
O=C(Oc1ccc(Cl)c2cccnc12)N1CCCCC1	-0.25	6.63
O=C(O)C1C2C=CC(C2)C1C(=O)N1CCCC1C(=O)Nc1ccc2ccccc2c1 (configuration not stated)	x	-0.165
CCOC(=O)c1ccc(NC(=S)NC(=O)c2ccccc2)cc1	x	0.3
C=CCn1nnc2sc3c(c2c1=O)CCC(C)C3 (configuration not stated)	1.85	-0.21
CC(C)N(C(=O)CSc1ccccc1Cl)c1ccccc1	0.15	-0.545

For convenience, part of the list above:
Molecule	AID504770	Ba CapD inh
CCN(C(=O)CSc1nnc(C2CC2)n1-c1ccccc1)C1=CCCC1	-0.55	x
O=C(Nc1ccc2[nH]ccc2c1)c1ccc2nonc2c1	-0.1	-1.49
CNc1ccccc1C(=O)OCC(=O)c1ccccc1	-3.25*	-0.13
CN1CCC(=NNC(=O)CCSc2ccc(Cl)cc2)CC1	2.05	0.005
Cc1nc2ccc(S(=O)(=O)N(C)CC(=O)N3CCc4ccccc4C3)cc2s1	-0.15	-0.02
CCOC(=O)Cc1csc(NC(=O)c2ccc(S(=O)(=O)N3CCCC3)cc2)n1	-0.2	x
COc1ccc(N2C(=O)C3C4c5ccccc5C(c5ccccc54)C3C2=O)cc1 (configuration not stated)	x	-0.07

(listing goes on)
Molecule	AID504770	Ba CapD inh
CC(C)(C)NC(=O)c1ccc2c(c1)CCO2	0.45	0.385
O=C(Cn1ncc2c1-c1ccccc1OC2)NC1CC1	2.25	-0.245
CC1CCN(c2nc3c(c(=O)n(C)c(=O)n3C)n2Cc2cccc(Br)c2)CC1	x	1.58
CC(C)(O)CC[C@@H](O)[C@](C)(O)C1CC[C@@]2(O)C3=CC(=O)C4CC(O)C(O)CC4(C)C3CCC12C (some centres not stated)	-1	0.705
O=C1c2ccccc2C(=O)N1CC1c2ccccc2CCN1S(=O)(=O)c1cccs1 (configuration not stated)	x	-1.47
Cc1onc(-c2ccccc2)c1C(N)=O	0.1	0.615
CCC(C)Sc1sc(C(=O)O)c(-c2ccc(Cl)cc2)c1C#N (configuration not stated)	x	-0.565
O=C1C(=O)N(CCCN2CCOCC2)C(c2ccccc2)/C1=C(\O)c1ccccc1 (configuration not stated)	x	0.44
CCOC(=O)C1=C(C)OC(N)=C(C#N)C12C(=O)Nc1ccc(Cl)cc12 (configuration not stated)	x	-0.495
CC1=NN(c2ccc(Cl)c(C(=O)O)c2)C(=O)/C1=C/c1cc2c(cc1Br)OCO2	x	-0.405
CCOC(=O)N1CCN(C(=O)c2c[nH]c3ccc(S(=O)(=O)N(CC)CC)cc3c2=O)CC1	1	16
O=C(Oc1ccc(-c2nnco2)cc1)c1cc(-c2ccccc2)nn1-c1ccccc1	0.6	x
CC(C)=CC(=O)N1CCCc2ccccc21	-0.3	0.685
COc1ccc(CNC(=O)C(OC(C)=O)c2ccccn2)cc1 (configuration not stated)	-0.9	x
COc1ccc(-n2nnc3c(=O)n(C/C=C/c4ccccc4)cnc32)cc1	1	-0.42
Cc1nn(-c2ccccc2)c2nc(Cl)c(C3N=C(N)Nc4nc5ccccc5n43)cc12 (configuration not stated)	1.5	x
O=C(OCCO)c1cc(Cl)c(C(=O)OCCO)cc1Cl	-0.65	-0.005
N#Cc1ccc(Sc2ccc(Cl)cc2)nc1	-1.25	0.165
CCOc1ncccc1C(=O)Nc1cc(Cl)ccc1N1CCOCC1	-0.65	x
C=CCNc1nc(NC2CCN(C(=O)OCC)CC2)nc(OCC)n1	-0.8	3.92
CN(C)c1ccc(/C=C/C(=C(C#N)C#N)C2CC2)cc1	-0.6	-1.08
COc1ccc(C(=O)NCCn2cc(SCC(=O)N3CCCCC3)c3ccccc32)cc1	0.25	-0.71
NC(=O)C(Cc1c[nH]c2ccccc12)NC(=O)OCC1CCCN(Cc2cc3ccccc3o2)C1 (configuration not stated)	x	-0.25
Cc1nc(SC2CC(=O)N(c3ccccc3)C2=O)c(C#N)c(C)c1C (configuration not stated)	x	-0.19
Cc1ccc(C#N)c(SCCCn2c(=O)[nH]c3ccccc32)n1	0.15	x
NC(=S)c1cnccc1C(F)(F)F	-0.4	9.85
Cc1ccccc1C1(c2ccccc2C)CC1C(=O)Nc1cccc(C(F)(F)F)c1 (configuration not stated)	x	-0.26
CCOC(=O)C1=C(CSc2nc(C)c(C)c(C)c2C#N)OC(N)=C(C#N)C1c1cccc(F)c1 (configuration not stated)	x	-0.26
OC1(c2ccc(Br)cc2)NN=C2CCCCCN21 (configuration not stated)	-1	x
Cc1oc(-c2ccccc2)nc1CC(=O)NC(CCCNC(=O)OCc1ccccc1)C(=O)OC(C)(C)C (configuration not stated)	x	0.66
CC(C)(C)c1cc2n(n1)C1=NCCN1C=N2	-1.85	-1.23
COC(=O)Cn1c(C(=O)OC)cc2c1ccn2-c1ccc(F)cc1	0.1	x
CC1CCc2c(sc(NC(=O)CSc3ncn[nH]3)c2C#N)C1 (configuration not stated)	-0.15	-0.78
CCOc1ccc(NC(=O)N2CCCC(CN3CCc4ccccc4C3)C2)cc1 (configuration not stated)	-1.3	-1.02
CCOC(=O)c1c(NC(=O)C(C)Sc2nnc(CNC(=O)c3ccc(OC)cc3)n2C)sc2c1CCCCC2 (configuration not stated)	x	-0.285
CC(C)Oc1ccc(C(F)(F)F)cc1NC(=O)C1CC1	0.05	-0.255
CCOC(=O)c1c(C)n(CCOc2cccc(OC)c2)c2c1cc(O)c1ccccc12	x	4.82
Cc1ccc(Cn2cnc3ccccc32)cc1	-0.95	-0.655
CCOC(=O)N1CCC(NC(=O)c2ccc(N3CC4CC(C3)c3cccc(=O)n3C4)c(NC(=O)c3cccnc3)c2)CC1 (configuration not stated)	x	-0.03
CCOc1ncccc1C(=O)OCC(=O)N1C(C)CCCC1C (configuration not stated)	-5.9*	x
O=c1n(-c2ccccc2)c(=O)n2n1C1C=CC2C1	0.75	-0.215
COC(=O)c1cc(C(=O)OC)cc(N2Cc3nccnc3C2=O)c1	-0.05	0.365
O=C1OCCC1Sc1nc2sccc2c(=O)n1-c1ccccc1 (configuration not stated)	-0.7	x

Source: PubChem
